Source: PubChem BioAssay (several laboratories)
Calb FLC – C. albicans growth inhibition with fluconazole, primary screen, CaCi-2 strain, Alamar Blue fluorescence | C. albicans CaCi-2 (fluconazole-resistant clinical isolate) + fluconazole, 48 h | growth inhibition, % (test concentration not listed) | 300,000 tested, 0.57% active | AID 1979, 2009;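 active = most replicates above 75%; inconclusive = exactly half above 75%; inactive = most below 75%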;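 note: all wells also contain fluconazole at 8 µg/ml as a sub-toxic cotreatment; 0% = median of DMSO wells and 100% = median of geldanamycin control wells; wells of about 8 µL received 7.5 nL stock; the first replicate is given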
Vif TR-FRET – inhibitors of Vif binding to APOBEC3G peptide, primary screen, biochemical, TR-FRET, GST-Vif 1-94, biotin-A3G peptide, dose response retest (AID 1117319) | Virion infectivity factor (Human immunodeficiency virus type 1 group M subtype B (isolate … | 260,000 tested, 0.57% active | TR-FRET GST-Vif / biotin-A3G peptide binding; higher % means a stronger effect; test concentration not given here; strong numbers were not always called active | one-dose inhibition, %; IC50 in µM for titrated hits;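 active = above the screen mean plus three standard deviations and confirmed in dose response; inconclusive = results disagree or hit not tested in dose response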;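 note: Vif residues 1-94 fused to GST binding biotinylated APOBEC3G peptide 110-148; 0% = full assay without inhibitor and 100% = GST in place of GST-Vif; retest series ran down from 100 µM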
Beta apoptosis – inhibitors of cytokine-induced beta cell apoptosis, primary screen, luminescence. protection from apoptosis, % (concentration not given with the values). INS-1E cytokine-induced death, ATP luminescence, 48 h; percent of positive-control rescue, neutral wells zero. 300,000 tested, 0.8% active. AID 435005, 2010;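 active = all replicates at 75% or more, or half of them and the mean; inconclusive = half reach 75% but not the mean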;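 note: 0% = cytokine-treated negative control wells and 100% = positive control rescue; higher means more ATP so stronger rescue from cytokine killing; wells of about 40 µL received 100 nL stock; the first replicate is given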
MLL AF4-AF9 inh – inhibitors of AF4 peptide binding to AF9, primary screen, biochemical, AlphaScreen, biotin-AF4 peptide, FLAG-AF9, single point | 350,000 tested, 0.47% active | AID 651704, 2012 | Protein AF-9 (Homo sapiens), P42568 | inhibition, % at 10 µM;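 active = every replicate reaching a set inhibition limit, whatever the replicate mean, cut at about 25% in these data; inconclusive = mean inhibition reaches that limit but some replicates miss it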;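 note: 0% = plate neutral control median and 100% = total signal loss; the record names both 10 and 1 µM as test concentration; the first replicate is given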
Target sequence (P42568 whole entry, looked up): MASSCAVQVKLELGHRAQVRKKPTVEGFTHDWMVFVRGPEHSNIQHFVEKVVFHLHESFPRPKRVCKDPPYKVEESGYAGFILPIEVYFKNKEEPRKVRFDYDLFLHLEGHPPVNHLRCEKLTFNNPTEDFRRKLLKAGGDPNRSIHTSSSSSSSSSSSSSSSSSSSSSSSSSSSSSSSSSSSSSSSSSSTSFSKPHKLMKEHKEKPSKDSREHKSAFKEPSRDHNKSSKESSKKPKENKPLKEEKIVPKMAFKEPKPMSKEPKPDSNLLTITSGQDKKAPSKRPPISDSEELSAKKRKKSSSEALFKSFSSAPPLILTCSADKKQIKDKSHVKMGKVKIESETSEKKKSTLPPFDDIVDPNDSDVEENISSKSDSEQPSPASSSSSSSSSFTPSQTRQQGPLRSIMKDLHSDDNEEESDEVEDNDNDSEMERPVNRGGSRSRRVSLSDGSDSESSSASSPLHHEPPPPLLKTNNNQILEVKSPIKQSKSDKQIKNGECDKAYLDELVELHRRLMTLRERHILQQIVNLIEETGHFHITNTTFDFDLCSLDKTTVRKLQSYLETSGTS
LANA-H2B inh – blockers of LANA interaction with H2A/H2B – biochemical, FP readout, HTS, primary screen; Protein LANA1 (Human herpesvirus 8 type P (isolate GK18)), Q9QR71; cell-free LANA-H2A/H2B peptide, fluorescence polarization; inhibition, % (concentration not given with the values); 320,000 tested, 0.6% active; AID 2629, 2010; in the data active = inhibition mostly above about 10%, no sharp cut-off; inactive = mostly below about 6.7%;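 note: stock transfer was 7.5 nL into about 10 µL; 0% = median of vehicle wells and 100% = median of positive control wells; one replicate is shown; the record names a cut of 25% in any replicate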
T cruzi inh – inhibitors of intracellular T. cruzi growth, primary screen, luminescence, NIH3T3 host cells; T. cruzi beta-gal in NIH3T3, 90 h; inhibition, % (concentration not given with the values); 300,000 tested, 1.4% active;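 active = mean inhibition across valid replicates above about 55%, limit read from the data; inconclusive = mean below that limit but half or more replicates reach it; inactive = mean below it, under half of replicates reach it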;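 note: signal also drops with host cell toxicity which is not excluded here; 0% = plate median of DMSO wells and 100% = zero luminescence signal; higher percent means less beta-gal luminescence so fewer parasites; stock transfer was 50 nL into about 50 µL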
RanGTP-Imp inh – inhibitors of RanGTP-importin-beta interaction, primary screen, biochemical, FRET, CFP-Ran, YFP-importin-beta, homogeneous; Ran GTPase (GTP-bound) - importin-beta complex; cell-free CFP-Ran/YFP-importin-beta FRET ratio; inhibition, % (no concentration beside the values); 300,000 tested, 1.1% active; AID 2216, 2009;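 active = most replicates above 15%; inconclusive = exactly half above 15%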;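 note: 0% = DMSO wells and 100% = Ran loaded with GDP instead of GTP; wells of about 40 µL received 100 nL stock; the first replicate is given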
A1 inh – caspase 3/7 activation in MEF A1-2A-BIM cells, primary screen, A1 inhibitor project, cell-based, luminescence, HTS. Caspase-Glo 3/7 luminescence, 3 h; percent of clofoctol response, vehicle zero. caspase activation, % (no concentration beside the values). 330,000 tested, 0.066% active. AID 2462, 2010;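 active = over half of replicate activation scores above 10%, or exactly half above 10 with the replicate mean above 10; inconclusive = replicate mean below 10 yet half the replicates above 10; inactive = over half of replicates below 10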;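 note: wells of about 30 µL received 50 nL stock; many hits fall short of the cut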
* = called active by the depositor; u = inconclusive; x = no result given; & = joins results of further samples.

SMILES	Calb FLC	Vif TR-FRET	Beta apoptosis	MLL AF4-AF9 inh	LANA-H2B inh	T cruzi inh	RanGTP-Imp inh	A1 inh
CC12CCC(C(=O)Nc3ccccc3N3CCOCC3)(CC1=O)C2(C)C (stereo not drawn)	-4	-2%	1	x	-0.1	7	-3.5	0.8
Cc1ccc(NC(=S)NCCc2c[nH]c3ccccc23)c(C)c1	9	-1%	5	6.1	0.6	11	4.6	1.2
COc1ccc(C2=NOC(C(=O)Nc3cccc(O)c3)C2)cc1 (stereo not drawn)	16	-3%	4	-4.6	5.9	20	2.5	0.6
O=C1CS/C(=N/N=C/c2c[nH]c3ccccc23)N1	-4	15%	x	6.3	4.1	-13	-1.7	0.7
Cc1cccc(C(=O)NNC(=O)c2ccc(O)cc2)c1	5	5%	-4	-0.6	0.4	-11	-1.7	-1.5
Cc1ccc(C(=O)CCC(=O)Nc2ccccc2C)cc1C	-1	x	x	-0.6	-2.3	3	-1.9	-2.3
CCn1c(=O)cc(SCC(=O)NCCN2CCN(Cc3ccccc3)CC2)c2ccccc21	-12	-10%&-1%	-2	x	5.6	33	u	2.7
COc1ccccc1NC(=O)CSc1nnc(C2CCCCC2)n1C	-1	-4%	9	x	4.1	-6	-0.3	0.3
[O-]c1c[n+](-c2ccc(-[n+]3cc([O-])on3)cc2)no1	-37	16%	-1	-1.3	2.9	-9	x	0.8
O=C(c1ccc(C(F)(F)F)cc1)C1CCCN(C(=O)c2csnn2)C1 (stereo not drawn)	-9	3%	-3	-7.6	-4.8	-20	-2.0	-0.7
CS(=O)(=O)N(CC(=O)N1CCN(Cc2ccccc2)CC1)c1ccc(F)cc1	-6	x	-2	-6.9	6.1	-6	-1.7	-0.4
Cc1ccc(OCCCCNC(C)c2ccccc2)c(C)c1 (stereo not drawn)	13	x	x	-19	-1.9	43	-1.1	-0.6
CC(=O)Nc1ccc(N2C(=O)c3cccc(NC(C)=O)c3C2=O)cc1	-5	10%	-2	-2.5	5.6	-14	-2.4	0.5
O=C(Cn1cnc2ccccc2c1=O)Nc1nnc(SCc2ccc(Cl)cc2)s1	11	17%	4	-6.8	8.4	-2	0.4	2.9
CCNc1nc(NCC)nc(Oc2ccc(N)cc2)n1	-22	25%	5	x	-3.5	-1	3.8	0.5
Cc1sc2ncnc(-n3nnc4ccccc43)c2c1C	33	-9%	-6	-2.9	4.8	-4	4.2	-0.8
COc1cc(C(=O)NCc2ccco2)c(Br)c(OC)c1OC	-5	3%	2	x	-9.1	-24	-3.9	-0.2
CCOC(=O)CNC(=O)c1ccc(Cl)s1	-1	-4%	-1	-1.7	0.0	-15	5.6	0.3
O=C(NCc1nc2ccccc2[nH]1)C1=C[C@@H](c2csc3ccccc23)C[C@@H](OCc2ccc(CO)cc2)O1	9	-5%	16	-2.4&-6.4	-8.1	44	0.2	-0.2
CCOC(=O)c1ccc(NC(=S)N2CCSC2c2c(F)cc(F)cc2F)cc1 (stereo not drawn)	0	5%	-6	-1.4	-3.5	11	3.1	0.0
CCCCN(C)CC(O)Cn1cc(/C=C/C(=O)c2ccc(OCC)cc2)c2ccccc21 (stereo not drawn)	2	x	9	x	-6.0	59*	25*	-0.2
CCc1ccc(N(CC(=O)NC)S(C)(=O)=O)cc1	11	-5%	-2	x	-0.7	1	-1.8	0.2
Cc1ccc(Cl)cc1NC(=O)N(C)CCO	17	3%	-7	-2.9	-0.2	-4	5.7	0.6
O=C(CSc1nccn1Cc1ccco1)Nc1ccc(F)cc1	1	-9%	0	0.9	-1.2	-13	5.5	0.3
COc1ccc(-c2cc3nc(C)c(CCC(=O)NC(C)CCc4ccco4)c(C)n3n2)c(OC)c1 (stereo not drawn)	15	3%	6	x	-0.5	41	-0.5	-0.5
Cc1cc([N+](=O)[O-])nn1CC(=O)NCc1ccccc1	0	x	-6	-1.3	-3.3	4	0.8	-1.4
O=[N+]([O-])c1cc(/C=N/O)ccc1Oc1ccccc1Cl	12	-9%	-4	4.8	-0.5	0	1.1	-0.2
O=C(CCn1c2c(c3ccccc31)CCCC2)NNC(=O)c1cccc([N+](=O)[O-])c1	9	x	1	x	-1.4	-15	5.8	0.2
C[N+]1=C(/C=C/Nc2ccccc2Cl)C(C)(C)c2ccccc21	-5	u	99*	x	x	37	4.2	-0.1
CCC(=O)NC(=S)Nc1c(C)cc(Br)cc1C	3	2%	-11	-3.9	3.1	-2	-0.9	-0.7
CCCCCCCCC1CC(C(=O)Nc2ccccc2)C(=O)O1 (stereo not drawn)	-3	x	-1	-2.4	-0.2	-17	u	1.1
CCN(CC)S(=O)(=O)c1ccc(N2CCOCC2)c(C(=O)O)c1	0	-1%	-2	x	0.0	-8	-1.2	-0.9
Cc1c(Cl)cccc1NC(=O)C1CCN(c2cnccn2)CC1	-3	x	3	-2.3	-4.2	21	-0.1	0.4
O=C(CCCc1c[nH]c2ccccc12)N1CCN(S(=O)(=O)c2cccs2)CC1	-11	-1%	4	x	4.3	2	u	0.0
CCc1ccc(NC(=O)C(=O)NCCOc2ccccc2Cl)cc1	-14	-4%	-6	-1.2	0.7	0	1.0	0.1
Cc1cc(F)ccc1N1CCC(N2CCN(C(C)C)C(CCO)C2)CC1 (stereo not drawn)	-23	x	-7	0.5	1.4	18	8.4	0.1
CCc1cccc(NS(=O)(=O)c2ccc3c(c2)NC(=O)C(C)S3)c1 (stereo not drawn)	-9	-9%	10	2.2	-1.0	-21	1.3	-0.8
COc1cc2c(cc1NC(=O)CSc1ccc(Cl)cc1)oc1ccccc12	-2	x	2	x	-1.2	26	-1.6	0.9
Cc1cc(C2CCCCC2)n(O)c(=O)c1	x	x	88*	3.7	-0.8	x	x	-0.9
CSc1ccccc1NC(=O)N1CCC(CO)(CC2CCCCO2)CC1 (stereo not drawn)	1	14%	-3	0.5	-12	0	-2.6	0.9

Two records drawn at random from those above, as already listed:
SMILES	Calb FLC	Vif TR-FRET	Beta apoptosis	MLL AF4-AF9 inh	LANA-H2B inh	T cruzi inh	RanGTP-Imp inh	A1 inh
Cc1ccc(OCCCCNC(C)c2ccccc2)c(C)c1 (stereo not drawn)	13	x	x	-19	-1.9	43	-1.1	-0.6
O=C(c1ccc(C(F)(F)F)cc1)C1CCCN(C(=O)c2csnn2)C1 (stereo not drawn)	-9	3%	-3	-7.6	-4.8	-20	-2.0	-0.7

Continuation:
SMILES	Calb FLC	Vif TR-FRET	Beta apoptosis	MLL AF4-AF9 inh	LANA-H2B inh	T cruzi inh	RanGTP-Imp inh	A1 inh
O=C(CN1C(=O)NC2(CCCc3ccccc32)C1=O)N1CCCCC1 (stereo not drawn)	0	-6%	-1	-4.6	1.4	-6	1.5	0.3
COc1ccc(N=CC2=C(O)c3ccccc3C2=O)cc1	-5	33%	0	x	2.9	2	-5.7	-14
O=C(NNC(=O)C1CC(c2cccs2)=NO1)Nc1ccc(Cl)cc1 (stereo not drawn)	17	x	-1	-5.7	-2.8	-10	-0.4	-1.3
Cc1cccc(NCC(=O)N/N=C/c2cccc(Br)c2)c1	23	-5%	3	0.3	-3.0	-5	1.0	1.7
COc1ccccc1N1CCN(CC(=O)c2c(N)n(C)c(=O)n(C)c2=O)CC1	-7	-6%	-2	-0.6	-1.1	4	-0.8	-0.2
Cc1ccc(S(=O)(=O)N2CCN(C(=O)COC(=O)CNC(=O)c3ccccc3)CC2)c(C)c1	-1	1%	-4	-0.5	-0.1	-18	0.6	0.3
CCS(=O)(=O)Nc1cccc(-c2cn3c(n2)SCC3)c1	14	4%	-11	1.5	6.2	-2	7.5	0.5
Cc1cccc(C)c1NC(=O)CN(C)CC(=O)Nc1sc2c(c1C(N)=O)CCC2	5	5%	-2	-29	-0.9	-5	-3.4	1.4
CCCCCNC(=O)CSC1=N/C(=C\c2ccc(Cl)c(Cl)c2)C(=O)N1CC	7	-1%	-1	x	4.8	-16	3.0	-0.2
CCCCN(C(=O)CCCc1nc2ccccc2c(=O)[nH]1)c1c(N)n(CCCC)c(=O)[nH]c1=O	2	x	-7	0.4	3.9	-15	-2.4	-0.5
O=C(COC(=O)/C=C/c1ccc(F)cc1)Nc1nnc(-c2ccccc2)o1	x	-11%	0	-2.5	-13	x	x	1.0
Cc1c(Br)c([N+](=O)[O-])nn1CC(=O)N1CCc2ccccc2C1	-3	-1%	3	3.2	-4.9	20	-3.0	0.0
Cc1ccc(Cn2c(SCCN3CCOCC3)nc3c2c(=O)n(C)c(=O)n3C)cc1	-16	u	4	-11	-0.2	5	1.9	0.0
Cc1noc(C)c1C(=O)N1CCCC(C(=O)c2cccc(OC(C)C)c2)C1 (stereo not drawn)	9	x	-6	-1.2	-1.6	1	-0.2	-0.7
CC(NS(=O)(=O)/C=C/c1ccccc1)C(=O)O (stereo not drawn)	-5	-6%	-3	-7.2	0.2	-3	-7.4	-0.2
CN(C)CCn1c(C(=O)Nc2ccccc2)cc2ccccc21	-6	12%	-3	x	0.3	2	-1.2	0.5
Cc1ccc(S(=O)(=O)N2CCN(C(=O)CN3C(=O)NC4(CCOc5ccccc54)C3=O)CC2)cc1 (stereo not drawn)	3	13%	-5	x	-4.0	1	1.5	-0.2
CCCCC(=O)Nc1cccc(-c2nc3ncccc3o2)c1C	-2	-7%	1	-7.3	3.5	0	-0.9	-1.5
CC1CCN(C(=O)CCCOc2ccc(Cl)cc2)CC1	-1	0%	5	x	-1.4	8	-3.6	-0.4
Cc1cc(C)nc(/N=C(/NC(=O)Nc2cccc(Cl)c2)Nc2ccccc2)n1	-1	-7%	3	x	-1.5	41	-0.8	0.3
CC(=O)c1cccc(OCc2cc(C(=O)N3CCSCC3)no2)c1	-2	-1%	-2	-2.9	3.3	-5	4.9	-4.6
Cc1c(C(=O)O)nnn1-c1ccccc1	-5	-6%	1	x	-4.1	-5	u	-0.5
COC(=O)c1cnn(-c2nc(OC)cc(OC)n2)c1C	31	u	-3	-9.7	2.1	-12	0.0	-0.8
CC(C)C(=O)N1N=C2CCCCC2C1(O)C(F)(F)F (stereo not drawn)	-10	-3%	-9	-0.6	-2.8	-8	u	0.1
CC1CCCC(C)N1C(=O)COC(=O)Cc1c[nH]c2ccccc12 (stereo not drawn)	-1	-4%	-2	-15	-3.9	-8	3.5	1.0
O=C(NNC(=O)C1CCCO1)c1ccccc1Cl (stereo not drawn)	-8	-3%	0	x	-0.7	-9	4.9	0.0
CN1N=C2c3ccccc3CCCC2C1c1ccc(F)cc1 (stereo not drawn)	-11	16%	-6	3.6	3.2	3	3.0	0.1
CC1CN(C2CCN(C(=O)c3ccccc3)CC2)CC(C)O1 (stereo not drawn)	19	-1%	-5	x	-2.6	-4	-1.3	0.7
CSc1ccc(OC2CCN(Cc3ccccc3)CC2)cc1	-40	-7%	-8	18	-4.8	16	-2.7	0.5
